# Mtb growth: Mycobacterium tuberculosis H37Rv growth inhibition, cell based, confirmatory dose response (AID 1949); most inactive calls were filed without a number and no value below 0 was filed; inhibition, % at 10 µg/mL; hits with a dose series show IC50 in µg/mL; 100,000 tested, 1.6% active;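 active means confirmed in a dose series; inconclusive means about 50% or more but not retested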;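 further: bacteria grown 7 days with compound before Alamar blue readout; 0% = untreated bacteria and 100% = reference antibiotic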
# Starred values were filed as active, the others as inactive; i = inactive; ? = inconclusive. An excerpt (hit frequency here may not be typical).
(1) CCN(C(=O)c1sc2ccccc2c1Cl)c1ccccc1
  Mtb growth: 10.4%

(2) CCOC(=O)c1c(N)c(C#N)c2n1CCCC2
  Mtb growth: i

(3) COc1ccccc1Oc1ccc(S(=O)(=O)Nc2cccc(C)c2)cc1
  Mtb growth: 1.4%

(4) CC(=O)c1c(C)nn(C(=O)N2CCOCC2)c1C
  Mtb growth: i

(5) S=C(Nc1ccccc1)Nc1ccc(Cc2ccncc2)cc1
  Mtb growth: i

(6) CCOC(=O)c1c(NC(=O)C2CCCO2)sc(C(=O)OC(C)(C)C)c1C (stereo not drawn)
  Mtb growth: i

(7) CCCCn1nnc(NC(=S)NC(=O)c2ccc(OC)c(Br)c2)n1
  Mtb growth: 5.1%

(8) CCc1cccc(CC)c1NC(=O)c1cccc(F)c1
  Mtb growth: 11.9%

(9) CN(Cc1ccccc1)S(=O)(=O)c1ccc(NC(=S)NC(=O)c2ccccc2[N+](=O)[O-])cc1
  Mtb growth: i

(10) COc1ccc(F)cc1S(=O)(=O)NCc1ccc2c(c1)OCO2
  Mtb growth: 2.6%

(11) CCN(CC)C(=O)C(=O)N1CCN(c2ccc(OC)cc2)CC1
  Mtb growth: i

(12) CCOc1ccc(NC(=O)C(CC)c2ccccc2)cc1 (stereo not drawn)
  Mtb growth: 4.5%

(13) CCOC(=O)c1sc(NC(C)=O)c(C(=O)Nc2ccccc2)c1C
  Mtb growth: i

(14) CC1CC(C)CN(CCOc2ccc(Cl)cc2)C1 (stereo not drawn)
  Mtb growth: i

(15) CC1(C)CC(=O)C2=C(C1)N(C1CCCCC1)C(=O)C2(NC(=O)c1cccs1)C(F)(F)F (stereo not drawn)
  Mtb growth: i

(16) Cc1cc(OCC(=O)O/N=C(\N)c2ccncc2)cc(C)c1Br
  Mtb growth: i

(17) O=c1c2c(-c3ccccc3)csc2ncn1Cc1cccc(Br)c1
  Mtb growth: 11.1%

(18) CCc1nc2sc3c(c2c2nnc(SCC(=O)OC)n12)CCC3
  Mtb growth: i

(19) CC(C)N(C(=O)c1c(Cl)cccc1Cl)C(C)C
  Mtb growth: i

(20) COc1ccc(NC(=O)CSCc2cccc(Cl)c2)c(OC)c1
  Mtb growth: i

(21) CCOc1ccc(NC(=O)CSc2nnc(CCc3ccccc3)n2-c2cccc(C)c2)cc1
  Mtb growth: i

(22) CCOc1ccc(C(=O)N(CCCCN2C(=O)c3ccccc3C2=O)c2ccc(F)cc2F)cc1
  Mtb growth: i

(23) CCOC(=O)c1ccc(NC(=O)CSc2nnc(C(C)NC(=O)c3ccccc3)n2CC)cc1 (stereo not drawn)
  Mtb growth: 1.8%

(24) COc1cc(CO)cc(I)c1OCc1ccccc1F
  Mtb growth: i

(25) CN(CC(=O)Nc1ccccc1)S(=O)(=O)c1ccc(Br)cc1
  Mtb growth: i

(26) CCOC(=O)c1sc2ncn3c(-c4ccc(C)cc4)nnc3c2c1C
  Mtb growth: i

(27) COC(=O)c1c(NC(=O)c2cc3ccccc3oc2=O)sc2c1CCC2
  Mtb growth: 4.29µg/mL*

(28) O=C(NCC1(c2ccccc2)CCCC1)C(=O)Nc1ccncc1
  Mtb growth: i

(29) CC(=O)c1ccc(N2CCN(C(=S)Nc3ccc(Br)cc3Cl)CC2)cc1
  Mtb growth: i

(30) COc1ccc(S(=O)(=O)N2CCN(c3cccc(Cl)c3C)CC2)cc1C
  Mtb growth: i

(31) COc1ccc2nc(SCC(=O)N3CCc4ccccc4C3)nc(C)c2c1
  Mtb growth: i

(32) CC(C)C(C(=O)Nc1ccc(S(=O)(=O)Nc2ncccn2)cc1)N1C(=O)c2ccccc2C1=O (stereo not drawn)
  Mtb growth: i

(33) COc1ccc(NC(=O)c2ccccc2NC(=O)c2ccc(C)cc2)cc1
  Mtb growth: i

(34) CCOC(=O)N1CCN(C(=O)Cc2ccc(C)cc2)CC1
  Mtb growth: i

(35) Cc1ccc(N2C(=O)CC(n3nc(C)c(C)c3C)C2=O)cc1 (stereo not drawn)
  Mtb growth: i

(36) O=[N+]([O-])c1ccc(C2Nc3c(cc(Cl)cc3C(F)(F)F)C3C=CCC32)cc1 (stereo not drawn)
  Mtb growth: i

(37) Cc1nc2ccc(NC(=O)CCN3C(=O)c4ccccc4C3=O)cc2s1
  Mtb growth: i

(38) N#Cc1ccccc1OCCn1cncn1
  Mtb growth: i

(39) CCC(=O)Oc1cc2oc(CC)c(-c3ccc4c(c3)OCCO4)c(=O)c2cc1CC
  Mtb growth: 31.8%

(40) CC1COC2C(O1)N(S(C)(=O)=O)CCN2S(C)(=O)=O (stereo not drawn)
  Mtb growth: 0.3%

(41) Cc1cc(C)c(C)c(OCCNCc2ccccc2)c1
  Mtb growth: i

(42) Cc1cc(OCCN2CCC(C)CC2)ccc1C(C)C
  Mtb growth: i

(43) Cn1c(SCC(=O)c2ccccc2)nnc1-c1ccccc1Cl
  Mtb growth: 1.0%

(44) Cc1nn(-c2cc(N3CCOCC3)ccc2N)c(=O)c2ccccc12
  Mtb growth: i

(45) COc1ccc(S(=O)(=O)N(C)CC(=O)Nc2ccccc2F)cc1Cl
  Mtb growth: i

# 3 entries out of the list, sorted by molecular weight, low to high.
(43) Cn1c(SCC(=O)c2ccccc2)nnc1-c1ccccc1Cl
  Mtb growth: 1.0%

(31) COc1ccc2nc(SCC(=O)N3CCc4ccccc4C3)nc(C)c2c1
  Mtb growth: i

(39) CCC(=O)Oc1cc2oc(CC)c(-c3ccc4c(c3)OCCO4)c(=O)c2cc1CC
  Mtb growth: 31.8%

# Going on with the list:
(46) Cc1nc2ccc(C(=O)Nc3ccc(F)cc3)cc2s1
  Mtb growth: i

(47) C=CCc1ccc(OCc2ccc(C(=O)N3CCc4ccccc43)o2)c(OC)c1
  Mtb growth: 10.5%

(48) CCC(=O)Oc1ccc(C(=O)Nc2ccc(OCC(=O)O)cc2)cc1
  Mtb growth: i

(49) COC(=O)c1c(NC(=O)CN2CCCCC2)sc(Br)c1-c1ccccc1
  Mtb growth: 7.9%

(50) COc1cc(NC(=O)C2CCCCC2)cc(OC)c1
  Mtb growth: 3.3%

(51) COC(=O)C1CCN(C(=O)C23CCC(C)(C(=O)C2)C3(C)C)CC1 (stereo not drawn)
  Mtb growth: i

(52) O=C(NC(=S)Nc1ccccc1Br)C1CCC1
  Mtb growth: 1.9%

(53) CCOC(=O)c1ccc2nc(C)cc(Nc3cccc(OC)c3)c2c1
  Mtb growth: i

(54) O=C(Nc1nncs1)C1CC1c1ccccc1 (stereo not drawn)
  Mtb growth: i

(55) CC(=O)N1CCc2cc(S(=O)(=O)NC3CCCCC3)ccc21
  Mtb growth: i

(56) CCOC(=O)c1cc(C(=O)OCC)c(=O)[nH]c1SCc1ccccc1
  Mtb growth: i

(57) Cc1ccc(N2CCN(CC(=O)Nc3ccc(Br)cc3)CC2)cc1C
  Mtb growth: i

(58) CCCC(CCC)n1[nH]c(=O)c2c(C)cc(C)nc21
  Mtb growth: 0.0%

(59) COc1ccc(CNC(=O)C2(c3ccccc3)CCN(S(=O)(=O)c3ccccc3)CC2)cc1
  Mtb growth: i

(60) CNc1cc(N2CCN(S(=O)(=O)c3ccc(Cl)cc3)CC2)ccc1[N+](=O)[O-]
  Mtb growth: i

(61) N#CCCN(CCC#N)S(=O)(=O)c1ccc(F)cc1
  Mtb growth: i

(62) Cc1cc(C)c2oc(-c3ccc(C)c(NC(=O)c4ccc([N+](=O)[O-])cc4)c3)nc2c1
  Mtb growth: i

(63) Cc1ccc(-n2nnnc2SCC(N)=O)cc1
  Mtb growth: i

(64) CCC(Oc1ccccc1)C(=O)Nc1cccc(Cl)c1 (stereo not drawn)
  Mtb growth: i

(65) O=S(=O)(NCCNS(=O)(=O)c1ccc(Cl)cc1)c1ccc(Cl)cc1
  Mtb growth: i

(66) O=S(=O)(Nn1cnnc1)c1ccccc1
  Mtb growth: 9.1%

(67) CNC(=O)c1[nH]cnc1C(=O)Nc1ccc(Cl)cc1
  Mtb growth: ?

(68) COc1cc(/C=N/NC(=O)CCNc2n[nH]c(=O)[nH]c2=O)cc(Br)c1O
  Mtb growth: 1.0%

(69) COc1cccc(C(=O)COc2ccc3c(C)c(Cc4ccccc4)c(=O)oc3c2)c1
  Mtb growth: i

(70) CCOC(=O)N1CCC(n2c(SCc3ccc([N+](=O)[O-])cc3)nc3ccccc3c2=O)CC1
  Mtb growth: i

(71) OCCNCc1cccc(OCc2ccc(F)cc2)c1
  Mtb growth: i

(72) COc1ccc(NC(=O)c2c(NCc3cccnc3)sc3c2CCC3)c(OC)c1
  Mtb growth: i

(73) Oc1c(C(Nc2ccccn2)c2ccccc2F)ccc2cccnc12 (stereo not drawn)
  Mtb growth: i

(74) CS(=O)(=O)Nc1ccc(NS(C)(=O)=O)cc1
  Mtb growth: i

(75) CCOc1ccc(OCc2ccc(C(=O)N3CCC(C)CC3)o2)cc1
  Mtb growth: 25.3%

# A run of entries from further up:
(48) CCC(=O)Oc1ccc(C(=O)Nc2ccc(OCC(=O)O)cc2)cc1
  Mtb growth: i

(49) COC(=O)c1c(NC(=O)CN2CCCCC2)sc(Br)c1-c1ccccc1
  Mtb growth: 7.9%

(50) COc1cc(NC(=O)C2CCCCC2)cc(OC)c1
  Mtb growth: 3.3%

(51) COC(=O)C1CCN(C(=O)C23CCC(C)(C(=O)C2)C3(C)C)CC1 (stereo not drawn)
  Mtb growth: i

(52) O=C(NC(=S)Nc1ccccc1Br)C1CCC1
  Mtb growth: 1.9%

(53) CCOC(=O)c1ccc2nc(C)cc(Nc3cccc(OC)c3)c2c1
  Mtb growth: i

(54) O=C(Nc1nncs1)C1CC1c1ccccc1 (stereo not drawn)
  Mtb growth: i

(55) CC(=O)N1CCc2cc(S(=O)(=O)NC3CCCCC3)ccc21
  Mtb growth: i

(56) CCOC(=O)c1cc(C(=O)OCC)c(=O)[nH]c1SCc1ccccc1
  Mtb growth: i

(57) Cc1ccc(N2CCN(CC(=O)Nc3ccc(Br)cc3)CC2)cc1C
  Mtb growth: i

(58) CCCC(CCC)n1[nH]c(=O)c2c(C)cc(C)nc21
  Mtb growth: 0.0%

(59) COc1ccc(CNC(=O)C2(c3ccccc3)CCN(S(=O)(=O)c3ccccc3)CC2)cc1
  Mtb growth: i

(60) CNc1cc(N2CCN(S(=O)(=O)c3ccc(Cl)cc3)CC2)ccc1[N+](=O)[O-]
  Mtb growth: i

(61) N#CCCN(CCC#N)S(=O)(=O)c1ccc(F)cc1
  Mtb growth: i

(62) Cc1cc(C)c2oc(-c3ccc(C)c(NC(=O)c4ccc([N+](=O)[O-])cc4)c3)nc2c1
  Mtb growth: i

(63) Cc1ccc(-n2nnnc2SCC(N)=O)cc1
  Mtb growth: i

(64) CCC(Oc1ccccc1)C(=O)Nc1cccc(Cl)c1 (stereo not drawn)
  Mtb growth: i

(65) O=S(=O)(NCCNS(=O)(=O)c1ccc(Cl)cc1)c1ccc(Cl)cc1
  Mtb growth: i

(66) O=S(=O)(Nn1cnnc1)c1ccccc1
  Mtb growth: 9.1%

(67) CNC(=O)c1[nH]cnc1C(=O)Nc1ccc(Cl)cc1
  Mtb growth: ?

(68) COc1cc(/C=N/NC(=O)CCNc2n[nH]c(=O)[nH]c2=O)cc(Br)c1O
  Mtb growth: 1.0%

(69) COc1cccc(C(=O)COc2ccc3c(C)c(Cc4ccccc4)c(=O)oc3c2)c1
  Mtb growth: i

(70) CCOC(=O)N1CCC(n2c(SCc3ccc([N+](=O)[O-])cc3)nc3ccccc3c2=O)CC1
  Mtb growth: i

(71) OCCNCc1cccc(OCc2ccc(F)cc2)c1
  Mtb growth: i

(72) COc1ccc(NC(=O)c2c(NCc3cccnc3)sc3c2CCC3)c(OC)c1
  Mtb growth: i

# Continuation.
(76) O=Cc1ccc(OCC(=O)O)c(I)c1
  Mtb growth: i

(77) Cc1cc(C)nc(SCC(=O)N2CCC(C(N)=O)CC2)n1
  Mtb growth: i

(78) CCOc1ccc(CN2CCC(C(=O)N3CCN(c4ccccc4OCC)CC3)CC2)cc1
  Mtb growth: i

(79) Cc1ccc(-c2cc(C(=O)N3CCC(C)CC3)c3ccccc3n2)s1
  Mtb growth: i

(80) CCOc1ccc(CCn2cnc3sc4c(c3c2=N)CCCCC4)cc1OCC
  Mtb growth: i

(81) COc1ccccc1OCC(=O)Nc1ccc(NC(=O)C23CC4CC(CC(C4)C2)C3)cc1
  Mtb growth: i

(82) COc1ccc(OC)c(C(C)NC(=O)c2ccc(C(C)(C)C)cc2)c1 (stereo not drawn)
  Mtb growth: i

(83) O=C(CCCN1C(=O)c2ccccc2C1=O)Nc1nc2ccc(S(=O)(=O)N3CCCC3)cc2s1
  Mtb growth: i

(84) Cc1ccc(N2C(=O)CC(N3CCc4ccccc4C3)C2=O)cc1 (stereo not drawn)
  Mtb growth: i

(85) Cc1cc(OCC(=O)Nc2ccc(C(N)=O)cc2)c(C(C)C)cc1Br
  Mtb growth: 13.7%

(86) CCN1C(=O)Cc2cc(S(N)(=O)=O)ccc21
  Mtb growth: i

(87) CCOc1ccc(NC(=O)Nc2c(C)n(C)n(-c3ccccc3)c2=O)cc1
  Mtb growth: i

(88) Nn1c(SCC(=O)Nc2ccc(OCc3ccccc3)cc2)nnc1C1CCCCC1
  Mtb growth: i

(89) CCCCc1ccc(NC(=S)NC(=O)c2cc(Cl)ccc2OC)cc1
  Mtb growth: i

# High-throughput results: PubChem, Southern Research Institute
